# AF4-AF9 inh – inhibitors of human MLL-AF4/AF9 interaction; P42568; AlphaScreen, biotin-AF4 peptide binding to FLAG-AF9; inhibition, % at 10 µM; hit rate 0.47% among 350,000; AID 651704;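 active = every replicate reaching a set inhibition limit, whatever the replicate mean, cut at about 25% in these data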;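 note: 0% = plate neutral control median and 100% = total signal loss; the record names both 10 and 1 µM as test concentration; the first replicate is given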
# Target sequence (P42568 whole entry, looked up): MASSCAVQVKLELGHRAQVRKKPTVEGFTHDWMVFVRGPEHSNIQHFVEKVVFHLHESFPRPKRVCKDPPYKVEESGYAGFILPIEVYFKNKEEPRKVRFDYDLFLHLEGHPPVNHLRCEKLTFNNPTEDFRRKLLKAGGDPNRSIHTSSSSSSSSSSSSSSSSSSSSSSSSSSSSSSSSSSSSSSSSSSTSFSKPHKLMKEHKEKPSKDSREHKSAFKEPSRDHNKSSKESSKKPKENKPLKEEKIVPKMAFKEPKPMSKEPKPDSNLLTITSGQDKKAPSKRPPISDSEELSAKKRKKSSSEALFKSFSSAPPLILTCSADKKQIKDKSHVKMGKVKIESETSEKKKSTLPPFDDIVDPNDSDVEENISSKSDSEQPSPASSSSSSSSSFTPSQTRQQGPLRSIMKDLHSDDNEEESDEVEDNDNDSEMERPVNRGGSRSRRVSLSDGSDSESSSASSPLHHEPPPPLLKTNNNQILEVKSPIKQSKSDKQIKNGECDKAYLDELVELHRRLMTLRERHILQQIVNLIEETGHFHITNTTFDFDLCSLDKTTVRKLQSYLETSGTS
# * hit, by the source's call. Only part of the results is shown; count on the stated rates, not on these rows.
# A first look (five entries):
SMILES,AF4-AF9 inh
O=C(C[C@H]1C[C@@H]2c3cc(NS(=O)(=O)c4ccccc4)ccc3O[C@@H]2[C@@H](CO)O1)NC1CCCCC1,2.0
CCCNC(=O)N1CC2(CCN(S(=O)(=O)CC)CC2)c2c([nH]c3cc(OC)ccc23)[C@H]1CO,-1.3
CC(C)(C)S(=O)N1Cc2cc(C(=O)N3CCOCC3)nc(-c3cccc(Br)c3)c2[C@@H]1CCO (some centres undefined),2.7
CCCC(=O)Nc1ccc2c(c1)OC[C@H](C)N(C(=O)c1cccnc1)C[C@H](C)[C@@H](OC)CN(C)C2=O,0.2
Cc1noc(C)c1NC(=O)Nc1ccc2c(c1)C(=O)N([C@@H](C)CO)C[C@@H](C)[C@@H](CN(C)C(=O)Cc1ccccc1)OCCCC[C@@H](C)O2,1.7

# Main list, from the start:
SMILES,AF4-AF9 inh
O=C(C[C@H]1C[C@@H]2c3cc(NS(=O)(=O)c4ccccc4)ccc3O[C@@H]2[C@@H](CO)O1)NC1CCCCC1,2.0
CCCNC(=O)N1CC2(CCN(S(=O)(=O)CC)CC2)c2c([nH]c3cc(OC)ccc23)[C@H]1CO,-1.3
CC(C)(C)S(=O)N1Cc2cc(C(=O)N3CCOCC3)nc(-c3cccc(Br)c3)c2[C@@H]1CCO (some centres undefined),2.7
CCCC(=O)Nc1ccc2c(c1)OC[C@H](C)N(C(=O)c1cccnc1)C[C@H](C)[C@@H](OC)CN(C)C2=O,0.2
Cc1noc(C)c1NC(=O)Nc1ccc2c(c1)C(=O)N([C@@H](C)CO)C[C@@H](C)[C@@H](CN(C)C(=O)Cc1ccccc1)OCCCC[C@@H](C)O2,1.7
CCCC(=O)N1CC2(C1)CN(CC1CC1)[C@@H](CO)c1[nH]c3cc(OC)ccc3c12,1.7
C[C@@H]1CN([C@@H](C)CO)S(=O)(=O)c2ccc(C#C[C@@H](C)O)cc2O[C@H]1CN(C)C(=O)CC1CC1,2.1
C[C@@H]1CN([C@@H](C)CO)C(=O)c2cc(-c3ccc(C(=O)N(C)C)cc3)cnc2O[C@@H]1CN(C)C(=O)C1CC1,-4.4
C[C@@H]1CN([C@@H](C)CO)C(=O)Cc2cc(NC(=O)CCN3CCOCC3)ccc2O[C@@H]1CN(C)CC1CC1,-0.9
C/C=C/c1ccc([C@H]2[C@H](CO)N(C(C)=O)C23CN(C(=O)c2ccncc2)C3)cc1,0.5
COCC(=O)N(C)C[C@H]1Oc2cc(-c3ccccc3F)ccc2S(=O)(=O)N([C@H](C)CO)C[C@@H]1C,-1.8
COc1ccc(NC(=O)N(C)C[C@@H]2Oc3c(NC(=O)c4cc(C)nn4C)cccc3C(=O)N([C@H](C)CO)C[C@H]2C)cc1,-2.0
COc1cccc(NC(=O)N(C)C[C@@H]2Oc3cc(-c4ccccc4OC)ccc3S(=O)(=O)N([C@@H](C)CO)C[C@H]2C)c1,2.1
COc1cccc2c1C1(O)C2CCCCCCCCCC12OCCCO2 (centres undefined),1.9
C[C@@H]1CN([C@@H](C)CO)C(=O)Cc2cc(NS(C)(=O)=O)ccc2O[C@H]1CN(C)C,-2.5
C[C@H]1CN([C@@H](C)CO)C(=O)c2cc(-c3ccc(C#N)cc3)cnc2O[C@H]1CN(C)CC1CCOCC1,-3.0
C[C@H](NC(=O)C[C@H]1C[C@H]2c3cc(NC(=O)NC4CCCCC4)ccc3O[C@H]2[C@H](CO)O1)c1ccccc1,-1.2
Cc1cn([C@H]2C[C@H](O)[C@@H](CCC(=O)NCC3CCCO3)O2)c(=O)[nH]c1=O (some centres undefined),-1.4
CO[C@H]1CN(C)C(=O)c2cc(NC(=O)C3CCCC3)ccc2OC[C@H](C)N(S(C)(=O)=O)C[C@H]1C,-5.1
C[C@@H]1CCCCO[C@H](CN(C)Cc2ccccc2)[C@@H](C)CN([C@H](C)CO)C(=O)c2cc(NC(=O)c3ccncc3)ccc2O1,-4.6
C[C@@H]1CCCCO[C@@H](CN(C)C(=O)Nc2ccc(C(F)(F)F)cc2)[C@H](C)CN([C@@H](C)CO)C(=O)c2cc(NC(=O)NC3CCCCC3)ccc2O1,-4.2
CO[C@@H]1CN(C)C(=O)c2ccc(NC(C)=O)cc2OC[C@@H](C)N(S(=O)(=O)c2cn(C)cn2)C[C@H]1C,1.3
C[C@H]1CN([C@@H](C)CO)C(=O)c2cc(-c3ccccc3)cnc2O[C@@H]1CN(C)C(=O)Cc1ccccn1,-5.4
CCN(CC)C(=O)C1=C(C)N(Cc2ccc(OC)cc2)C(=O)C(CC(=O)NCCCN(C)C)C1 (centres undefined),-2.7
C[C@@H]1CN([C@H](C)CO)C(=O)c2cc(NC(=O)Cn3cnnn3)ccc2O[C@@H]1CN(C)S(C)(=O)=O,-0.6
CS(=O)(=O)Nc1ccc2c(c1)[C@@H]1C[C@H](CC(=O)N3CCc4ccccc4C3)O[C@H](CO)[C@@H]1O2,0.5
COc1ccc(NC(=O)N(C)C[C@@H]2Oc3c(NS(=O)(=O)c4c(C)noc4C)cccc3C(=O)N([C@@H](C)CO)C[C@@H]2C)cc1,-1.9
CN(C)CC(=O)N[C@H]1CC[C@@H](CC(=O)NCc2ccc(Cl)cc2)O[C@H]1CO,-11.7
CC(=O)Nc1ccc(CNc2nc(NC(C)C)nc3ccsc23)cc1,2.1
O=C(Cc1ccccc1)N1CC[C@@H]2[C@H](CO)Nc3ccc(-c4cccc(F)c4)cc3[C@@H]21,0.5
Cc1noc(C)c1NC(=O)N[C@H]1CC[C@@H](CC(=O)NCc2ccc(Cl)c(Cl)c2)O[C@H]1CO,-0.6
C/C=C/c1ccc([C@H]2[C@@H](CO)N(C(=O)CN(C)C)C23CN(C(=O)C2CCCC2)C3)cc1,5.5
CNC[C@H]1Oc2ccc(NS(=O)(=O)c3ccc(OC)cc3)cc2CC(=O)N([C@H](C)CO)C[C@@H]1C,-3.4
Cc1noc(C)c1NC(=O)Nc1ccc2c(c1)C(=O)N([C@H](C)CO)C[C@@H](C)[C@@H](CN(C)Cc1ccncc1)OCCCC[C@@H](C)O2,-0.8
COCC#Cc1cnc2c(c1)C(=O)N([C@@H](C)CO)C[C@H](C)[C@H](CN(C)S(=O)(=O)c1cn(C)cn1)O2,-2.8
COc1ccc(CNC(=O)C[C@@H]2C[C@H]3c4cc(NC(=O)NC5CCCC5)ccc4O[C@H]3[C@H](CO)O2)cc1,-8.1
COc1ccc(S(=O)(=O)Nc2ccc3c(c2)CC(=O)N([C@@H](C)CO)C[C@@H](C)[C@@H](CN(C)Cc2ccc(Cl)c(Cl)c2)O3)cc1,-1.6
COc1cccc(CN(C)C[C@H]2OCc3cnnn3CCCC(=O)N([C@H](C)CO)C[C@H]2C)c1,1.5
C[C@H]1CN([C@@H](C)CO)C(=O)Cc2cc(NS(=O)(=O)c3ccccc3)ccc2O[C@H]1CN(C)S(C)(=O)=O,-1.2
CC(C)c1cn(CC[C@H]2CC[C@@H](NC(=O)Nc3cc(Cl)cc(Cl)c3)[C@H](CO)O2)nn1,-1.2
CS(=O)(=O)Nc1ccc2c(c1)[C@@H]1C[C@@H](CC(=O)NC3CCCCC3)O[C@H](CO)[C@@H]1O2,2.6
CN1C(=O)c2cc(NC(=O)Cc3cccs3)ccc2OC[C@@H]2O[C@@H](CC(=O)O)CC[C@@H]21,-1.0
C[C@@H]1CN([C@H](C)CO)S(=O)(=O)c2ccc(C#C[C@@H](C)O)cc2O[C@H]1CN(C)C(=O)CN(C)C,-1.8
CCC(=O)N(C)C[C@@H]1Oc2cc(-c3ccccc3)ccc2S(=O)(=O)N([C@@H](C)CO)C[C@@H]1C,-1.2
Cc1noc(C)c1S(=O)(=O)Nc1ccc2c(c1)C(=O)N([C@@H](C)CO)C[C@@H](C)[C@H](CN(C)C(=O)Nc1cccc3ccccc13)OCCCC[C@@H](C)O2,-6.0
CCCCN(CCCC)Cc1cc(=O)oc2ccc3ccccc3c12,3.9
CNC(=O)C[C@@H]1CC[C@H]2[C@@H](COc3ccc(NC(=O)Nc4ccc(Cl)cc4)cc3C(=O)N2C)O1,2.0
CO[C@@H]1CN(C)C(=O)c2cc(NS(C)(=O)=O)ccc2OC[C@H](C)N(C)C[C@H]1C,-3.7

# Two records drawn at random from the list so far:
SMILES,AF4-AF9 inh
COc1cccc(CN(C)C[C@H]2OCc3cnnn3CCCC(=O)N([C@H](C)CO)C[C@H]2C)c1,1.5
C[C@H]1CN([C@@H](C)CO)C(=O)Cc2cc(NS(=O)(=O)c3ccccc3)ccc2O[C@H]1CN(C)S(C)(=O)=O,-1.2

# Later entries:
SMILES,AF4-AF9 inh
Cc1ccc(S(=O)(=O)N[C@H]2CC[C@@H](CCNC(=O)C3CCOCC3)O[C@@H]2CO)cc1,-2.7
Cc1cccc(-c2ccc([C@@H]3[C@@H](CO)N4CCCCN(C(=O)c5cccnc5)C[C@H]34)cc2)c1,5.8
C[C@H](CO)N1C[C@H](C)[C@@H](CN(C)Cc2ccccn2)Oc2cc(C#CC3CC3)ccc2S1(=O)=O,3.4
CO[C@H]1CN(C)C(=O)c2cc(NC(=O)Nc3cc(F)ccc3F)ccc2OC[C@H](C)N(C(=O)c2cnccn2)C[C@H]1C,0.3
O=C(C[C@@H]1CC[C@@H]2[C@H](COC[C@@H](O)CN2C(=O)Nc2cccc(Cl)c2)O1)NCC1CCCCC1,-0.8
C[C@@H]1CN([C@@H](C)CO)C(=O)c2cc(Br)cnc2O[C@@H]1CN(C)CC1CCCC1,-2.2
COc1ccc(CN(C)C[C@H]2Oc3ccc(NC(=O)C4CC4)cc3C(=O)N([C@@H](C)CO)C[C@H]2C)cc1,-2.7
O=C(C1CC1)N1CC(=O)N2[C@@H](CO)[C@@H](c3ccc(C#CC4CCCC4)cc3)[C@@H]2C1,0.2
COCC(=O)Nc1ccc2c(c1)C(=O)N(C)[C@@H]1CC[C@H](CC(=O)NC3Cc4ccccc4C3)O[C@@H]1CO2,-0.5
Cc1ccc(S(=O)(=O)Nc2ccc3c(c2)CC(=O)N([C@@H](C)CO)C[C@H](C)[C@@H](CN(C)C(=O)Nc2ccccc2)O3)cc1,-3.2
O=C(NCCc1ccncc1)[C@H]1[C@H](CO)[C@H]2Cn3c(ccc(-c4cccnc4)c3=O)[C@H]2N1C(=O)C1CC1,2.1
CC(C)(C)OC(=O)N1CC2(CCCCC2)CC1Cc1ccc(C(F)(F)F)cc1 (centres undefined),-1.1
C[C@@H]1CCCCO[C@H](CN(C)S(=O)(=O)c2cccs2)[C@H](C)CN([C@@H](C)CO)C(=O)c2cc(NC(=O)Nc3ccc(C(F)(F)F)cc3)ccc2O1,-3.0
COc1ccc(-c2ccc3[nH]c4c(c3c2)CCN2C(=O)[C@@H]([C@H](C)O)[C@@H](N(C)C(=O)Nc3cc(Cl)cc(Cl)c3)C[C@@H]42)cc1,1.5
C[C@H](NC(=O)C[C@H]1C[C@H]2c3cc(NC(=O)Cc4ccncc4)ccc3O[C@H]2[C@H](CO)O1)c1ccccc1,1.4
C[C@@H]1CN([C@@H](C)CO)C(=O)c2cccc(NC(=O)C3CCOCC3)c2O[C@@H]1CN(C)Cc1ccc(Cl)c(Cl)c1,-0.5
C[C@@H]1CCCCO[C@H](CN(C)C(=O)Cc2ccccc2)[C@H](C)CN([C@@H](C)CO)C(=O)c2cc(NC(=O)Nc3ccc(C(F)(F)F)cc3)ccc2O1,0.6
CC(C)Oc1ccc(F)cc1-c1cc(C(=O)NCc2ccc(F)cc2)[nH]n1,-1.8
C/C=C/c1ccc2c(c1)O[C@@H](CN(C)C(=O)c1cccc(F)c1)[C@H](C)CN([C@@H](C)CO)S2(=O)=O,3.2
C[C@H]1CN([C@@H](C)CO)C(=O)c2cccc(NC(=O)c3ccc(-c4nccs4)cc3)c2O[C@H]1CN(C)CC1CC1,1.3
O=C(Nc1ccccc1F)N[C@H]1CC[C@H](CCNC(=O)C2CCOCC2)O[C@H]1CO,-1.6
CC1=C(C(=O)N2CCCCCC2)CC(CC(=O)NC2CCCC2)C(=O)N1Cc1ccc(F)cc1 (centres undefined),-4.0
C[C@H](CO)N1C[C@H](C)[C@@H](CN(C)Cc2ccc(C(F)(F)F)cc2)Oc2c(NS(=O)(=O)c3ccc(Cl)cc3)cccc2C1=O,4.5
C[C@H]1CN([C@@H](C)CO)C(=O)Cc2cc(NC(=O)Nc3ccccc3)ccc2O[C@@H]1CN(C)C(=O)Nc1ccccc1,-15.6

# Three compounds out of the list above, ordered by the number in AF4-AF9 inh, descending.
compound | AF4-AF9 inh
CC(C)Oc1ccc(F)cc1-c1cc(C(=O)NCc2ccc(F)cc2)[nH]n1 | -1.8
C[C@@H]1CCCCO[C@H](CN(C)S(=O)(=O)c2cccs2)[C@H](C)CN([C@@H](C)CO)C(=O)c2cc(NC(=O)Nc3ccc(C(F)(F)F)cc3)ccc2O1 | -3.0
CC1=C(C(=O)N2CCCCCC2)CC(CC(=O)NC2CCCC2)C(=O)N1Cc1ccc(F)cc1 (centres undefined) | -4.0

# Remaining list, next part.
SMILES,AF4-AF9 inh
O=C1NC(Cc2ccccc2)c2nc3ccc(F)cc3c(=O)n2-c2ncccc21 (centres undefined),0.6
Cc1cc(F)ccc1-c1cc(C(=O)NCC2CCCCC2)[nH]n1,-3.4
CC(=O)c1ccc(Nc2nc(C(N)Cc3ccc(Cl)cc3)cs2)cc1 (centres undefined),3.6
CO[C@@H](CN(C)Cc1ccc2c(c1)OCO2)[C@H](C)CN(C(=O)c1ccccc1)[C@@H](C)CO,0.1
CCCCc1c(Cc2ccccc2)ncn1CCc1ccccc1OC,15.5
CN1[C@H](CO)[C@@H]2c3ccccc3N(C(=O)c3ccc(F)cc3)C[C@@H]21,-0.1
C[C@@H]1CN([C@H](C)CO)C(=O)c2cc(N(C)C)ccc2O[C@@H]1CN(C)C,-3.7
COC(=O)[C@@]12C[C@@H](CC(=O)NCC34CC5CC(CC(C5)C3)C4)C(=O)N(CCc3ccc(OC)c(OC)c3)C1=CCC(C)(C)C2,1.7
C[C@H](O)C#Cc1cnc2c(c1)C(=O)N([C@H](C)CO)C[C@H](C)[C@H](CN(C)C(=O)Cc1ccncc1)O2,-2.2
C[C@H]1CCCCO[C@H](CN(C)C(=O)Nc2ccccc2)[C@@H](C)CN([C@@H](C)CO)C(=O)c2cc(NS(=O)(=O)c3ccccc3)ccc2O1,-4.0
COc1cccc(S(=O)(=O)Nc2ccc3c(c2)[C@H]2C[C@H](CC(=O)NCc4ccccc4F)O[C@H](CO)[C@H]2O3)c1,-0.3

# Assay outcomes: PubChem BioAssay, Broad Institute
